eIF4H FP inh = inhibitors of RNA binding by human eIF4H; eIF4H fluorescence polarization binding assay; 290,000 compounds, 0.94% hits; AID 2012; inhibition, % at 35 µM; Q15056;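 active = 50% or more with normal probe brightness, or confirmed in later tests; inconclusive = above 50% with abnormal brightness, or retests that disagree; inactive = below 50% or failed in later tests; about a fifth of its hits are not listed in these tables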;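 also: calls also rest on retests at 20 µM and on dose response follow-up; 0% = protein and probe with vehicle and 100% = probe without protein; strong numbers were not always called active; many hits fall short of the cut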
CSC inhib = cancer stem cell inhibition | cancer stem cell-like cells viability, luminescence | inhibition, % at 7.5 µM | 300,000 compounds, 1.1% hits | AID 2717;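 active = mean at 75% or more and at least half the replicates too; inconclusive = mean and replicates disagree; tested in HMLE shEcad cells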;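 also: 0% = median of negative and 100% = median of positive control wells; the first replicate is given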
PABP polyA inh = PABP-poly(A) binding inhibition | P11940 | PABP-poly(A) RNA binding, fluorescence polarization | inhibition, % at 35 µM | 290,000 compounds, 1% hits | AID 2014;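 active = 50% or more with normal probe brightness, or confirmed in later tests; inconclusive = above 50% with abnormal brightness, or retests that disagree; inactive = below 50% or failed in later tests; about a fifth of its hits are not listed in these tables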;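 also: calls also rest on retests at 20 µM and on dose response follow-up; controls were probe without protein and protein plus probe with vehicle; some compounds called inactive have numbers as strong as hits; many hits fall short of the cut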
UUG fidelity = modulators of start codon recognition fidelity in yeast; S. cerevisiae UUG-firefly luciferase reporter, luminescence/redox ratio; activity score, % at 18.7 µM; 350,000 compounds, 0.13% hits; AID 602363;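 active = replicate mean at a twofold rise or more, about +100% in these data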;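 also: firefly luciferase made from a UUG start codon reports start codon fidelity; reporter light over untreated wells divided by growth signal over untreated wells; some hits fall short of that in this replicate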
HIV Env fusion = inhibitors of HIV Env-mediated cell fusion | HeLa-JRFL Env/CEM21 cell fusion, luciferase | inhibition, % at 12.3 µM | 360,000 compounds, 1.1% hits;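 active = mean replicate inhibition score of at least 50 and every replicate individually at or above 50; inconclusive = only one of the two criteria met; inactive = mean below 50 and not all replicates reaching 50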;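 also: 0% = plate neutral controls and 100% = maraviroc near 300 nM; one replicate is shown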
Rce1 inh = yeast Ras-converting enzyme inhibition | yeast membranes, quenched prenylated peptide cleavage fluorescence | calls only | 290,000 compounds, 0.27% hits;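 active = fall in fluorescence gain of 50% or more versus controls, with final raw signal at or below 3038400; inconclusive = same 50% fall but final raw signal above 3038400; inactive = fall in fluorescence gain under 50%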;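 also: plate controls were neutral control wells for no effect and wells lacking membranes for full effect; tested at 10 µM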
Target sequence (Q03530 whole entry, looked up): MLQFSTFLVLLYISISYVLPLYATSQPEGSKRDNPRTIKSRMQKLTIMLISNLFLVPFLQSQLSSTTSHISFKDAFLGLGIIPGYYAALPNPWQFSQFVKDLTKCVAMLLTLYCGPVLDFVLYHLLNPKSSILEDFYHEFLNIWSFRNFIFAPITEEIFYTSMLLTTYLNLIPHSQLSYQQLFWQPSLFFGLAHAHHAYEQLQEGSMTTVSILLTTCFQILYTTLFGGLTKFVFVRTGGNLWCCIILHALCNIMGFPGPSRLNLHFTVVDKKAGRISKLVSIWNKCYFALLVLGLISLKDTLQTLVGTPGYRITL
MT1-MMP act inh = blocks activation of human MT1-MMP; HT1080 RFP-PRO-GFP cells, GFP/RFP ratio fluorescence, overnight; percent of plate control window, DMSO zero; GFP/RFP ratio change, % at 20 µM; 360,000 compounds, 0.061% hits;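 active = GFP/RFP ratio change of at least 30% with cell ATP level not reduced by more than half and red fluorescence within 50% of control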; also: strong numbers were not always called active
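Material – HT1080 RFP-PRO-GFP cells · Control set – DMSO wells and RFP-L50D-GFP cells · Incubation – overnight cell settling, then overnight compound exposure, 37 °C, 5% CO2 · Compound dosing – single-point 20 µM compound, 1% DMSO · Read-out – GFP/RFP fluorescence ratio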
eIF4H FP inh retest = also measured in eIF4H FP inh; calls as there; inhibition, %; compound at 20 µM; confirmation average;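 mean of two retest wells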
PABP polyA inh retest = also measured in PABP polyA inh; calls as there; inhibition, %; compound at 20 µM; confirmation repeats;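 mean of two retest wells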
MT1-MMP act inh RFP = second read-out of MT1-MMP act inh, no call of its own (marks repeat the call); RFP signal change, %; measured here: RFP expression control read;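 0 = vehicle wells; hits needed this value within 50% of zero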
Active calls of the source: *; i = inactive; ? = inconclusive; · = no result given; & = joins results of further samples.

SMILES | eIF4H FP inh | CSC inhib | PABP polyA inh | UUG fidelity | HIV Env fusion | Rce1 inh | MT1-MMP act inh | MT1-MMP act inh RFP | others
Cn1c(=O)c(C(=O)CCl)c(N)n(CC2CC2)c1=O | 2 | -26 | 1 | -9 | · | · | 5 | -6
Cc1ccc(Nc2nc(NCc3cccs3)nc3ccsc23)c(C)c1 | · | · | · | 6 | 24 | · | -11 | -25
O=C(NCCS(=O)(=O)NCc1ccccn1)c1ccccc1 | · | -10 | · | -37 | · | i | -8 | -3
CCC(=O)Nc1ccc(NC(=O)CSc2nnc(-c3ccco3)n2C)cc1 | -7 | -5 | 1 | -6 | -3 | i | 2 | -1
CCOc1ccccc1NC(=O)CSc1nc2ccccc2nc1N1CCOCC1 | -4 | -4 | 6 | -2 | 37 | i | -3 | 0
CC1=NN(C(N)=S)C(=O)C1N=Nc1cccc(C)c1 (stereo not given) | 5 | 16 | 19 | -18 | -27 | i | 5 | 4
Cn1c(=O)c2c(nc(Oc3cccc(O)c3)n2C)n(C)c1=O | 2 | -10 | 5 | -21 | 1 | i | -8 | -1
CC(C)(C)c1ccc(C(=O)N2CCC(C(=O)NCC3CCCO3)CC2)cc1 (stereo not given) | -14 | -3 | -8 | -12 | -18 | i | 2 | -4
CCSc1nc(O)c(C2OC(=O)c3c2ccc(OC)c3OC)c(=O)n1-c1ccccc1 (stereo not given) | -4 | 0 | -8 | -11 | 15 | i | -9 | -1
O=C(COC(=O)c1cc([N+](=O)[O-])ccc1N1CCOCC1)NC1CCS(=O)(=O)C1 (stereo not given) | · | · | · | -2 | 0 | i | 6 | 8
O=C(CSc1ccc(-c2ccncc2)nn1)N1CCCCC1 | 2 | -3 | -53 | · | -11 | i | 3 | 2
CCN(CC(=O)Nc1c(F)cccc1F)C(=O)c1ccc(C(F)(F)F)cc1 | -2 | -3 | 4 | -10 | 8 | i | 2 | 2
C=CCn1c(C(C)NC(=O)CCC)nc2ccccc21 (stereo not given) | 4 | · | 6 | · | · | i | -1 | 5
COc1cccc(CN(c2ccc3c(c2)CCC3)S(=O)(=O)c2ccc(-n3cnnn3)c(OC)c2)c1 | 2 | · | 8 | -2 | -13 | i | -3 | -6
Cc1cc(NC(=O)C(C)SCC(=O)N(C)Cc2c(F)cccc2Cl)no1 (stereo not given) | · | -18 | · | 5 | 10 | · | 0 | -1
Nc1nc(-c2ccccc2)cc(N2CCCCC2)n1 | -8 | 53 | 7 | 2 | · | i | 11 | -7
O=C(Nc1ccc(C2=NCCN2)cc1)c1ccc(C(=O)Nc2ccc(C3=NCCN3)cc2)c([N+](=O)[O-])c1 | ? | -19 | 44 | · | 7 | i | 0 | -1
Cc1ccc(C(=O)c2cccc(N)c2)cc1C | -9 | -2 | -12 | -28 | 33 | i | 0 | 1
Cc1ccc(-n2c3c(cc(C(=O)O)c2=O)C(=O)CC(C)(C)C3)cc1 | -9 | · | -6 | -12 | -89 | i | 4 | 6
CCCn1c(SCC(=O)NC2CCCCC2)nnc1C1CC1 | -8 | -2 | 11 | -14 | -10 | i | -1 | 4
O=C(CNC(=S)NC(=O)c1cccc([N+](=O)[O-])c1)c1ccccc1 | 2 | -4 | 62 | · | -6 | · | 5 | 2 | eIF4H FP inh retest=21;PABP polyA inh retest=22
COc1cccc(-n2nc(C(=O)N3CCN(Cc4ccccc4)CC3)c3ccccc3c2=O)c1 | 4 | -12 | 1 | · | 14 | i | 1 | 1
CS(=O)(=O)c1ccc(CNC(=O)[C@]2(C(F)(F)F)C[C@H](CCc3ccccc3)CCCO2)cc1 | · | -2 | · | 0 | 11 | i | 6 | -6
COc1ccc(N2CCN(C(=O)NCc3cccc(OC)c3)CC2)cc1 | -3 | 0 | 12 | -14 | -2 | i | 1 | 2
COc1ccc(N2CCN(c3oc(Cc4cccc5ccccc45)nc3C#N)CC2)cc1 | -2 | 3 | 5 | -4 | ? | i | -1 | 0
Cc1ccc2nc(N3CCN(C(=O)c4ccco4)CC3)c3nncn3c2c1 | 3 | -1 | 0 | 3 | -22 | i | 3 | 0
Cc1cc(C)nc(Sc2ccc([N+](=O)[O-])cc2[N+](=O)[O-])n1 | 1 | 36 | -6 | · | -1 | i | -3 | -11
CCOc1ccc(Nc2nc(Cc3nnc(SCC(=O)O)o3)cs2)cc1 | 48* | · | 62 | -23 | · | i | -3 | 3 | eIF4H FP inh retest=84*;PABP polyA inh retest=46
Cc1ccc(N(CC(=O)N2CCN(Cc3ccccc3)CC2)S(C)(=O)=O)cc1C | -13 | 1 | -7 | -2 | -8 | i | -1 | -2
CNc1ccc2ncc(-c3ccccc3NC(C)=O)n2n1 | · | · | · | -32 | 14 | · | -3 | 3
CC(C)[C@H](NC(=O)c1cccc(CN(Cc2ccccc2)C(=O)c2ccccc2)c1)C(=O)O | · | -8 | · | · | 5 | i | 0 | 0
COc1ccc(Cc2nnc(SCC(=O)Nc3ccc(C)cc3C)[nH]c2=O)cc1 | · | -15 | · | · | 2 | i | -1 | -4
CC1(NC(=O)C2CCN(C(=O)Nc3ccccc3)CC2)CCS(=O)(=O)C1 (stereo not given) | -18 | -20 | 2 | -19 | -37 | i | -1 | -4
N#Cc1c(-c2ccccc2)nc(SCC(=O)Nc2ccc(OC(F)(F)Cl)cc2)[nH]c1=O | 7 | 34 | 12 | -9 | 4 | i | 1 | 4
CCOCCCNC(=O)c1cc(Sc2nnc(C)s2)nc2ccccc12 | -10 | 11 | -8 | 12 | -5 | i | 4 | 1
COc1ccccc1-n1c(SCC(=O)Nc2ccccc2C)nc(O)cc1=O | 2 | -11 | 14 | -6 | -70 | i | 2 | 4
C=CCn1c(O)c2ccc(C(=O)N=NC(=O)COc3ccc(OC)cc3)cc2c1O | 1 | -18 | -6 | 8 | 4 | i | 1 | 2
CC(C)(C)OC(=O)C[C@H]1C/C=C\C[C@H](CC(=O)N[C@H](CO)Cc2ccccc2)C(=O)N[C@H](C(C)(C)C)COC1=O | · | · | · | -5 | 14 | · | 0 | 1
Cc1cccc(Nc2cc(=O)n(C)c(=O)n2C)c1 | · | · | · | -10 | -2 | · | -1 | 4
Cc1ccc(N2CCN(S(=O)(=O)c3ccc4c(c3)NC(=O)C(C)C(=O)N4)CC2C)cc1 (stereo not given) | 20 | -14 | 18 | -4 | · | i | 3 | -11
CS(=O)(=O)c1ccc2nc(N)sc2c1 | 1 | -15 | 0 | -16 | ? | i | -3 | -5
COc1cccc(NC(=O)Cc2ccc(C)cc2)c1 | 8 | 15 | 3 | -5 | -8 | i | 2 | 0
COCn1ccnc1C(O)(c1ccc(OC)cc1)c1ccc(OC)cc1 | -4 | -1 | 8 | -16 | 17 | i | -2 | -1
CC1=C(C#N)C(/C=N/OCc2ccc(F)cc2Cl)CC(=O)N1 (stereo not given) | 2 | -7 | -3 | · | -1 | i | -3 | 0
CC1(C)Cc2nc3nc(SCC(=O)Nc4ccccc4)nc(N)c3cc2CO1 | 2 | -9 | -2 | · | 5 | i | -1 | 2
O=[N+]([O-])c1cccnc1SCc1ccccc1 | -6 | -18 | -15 | -8 | -5 | i | -8 | -7
COc1ccc(N2CCN(C(=S)Nc3cccc(C)c3C)CC2)cc1 | -9 | -21 | -4 | -18 | · | i | 4 | 1
Cc1ccc(NC(=S)N(Cc2cccs2)Cc2cc3cc(C)cc(C)c3[nH]c2=O)cc1 | 1 | 19 | 0 | · | -23 | i | -4 | -6
CC(C)NC(=S)Nc1c(N)[nH]c(=O)[nH]c1=O | -12 | 13 | 1 | -14 | -1 | i | 2 | 3
COC(=O)[C@H]1C[C@H]1[C@@H](NC(=O)c1cccnc1)c1ccccc1 | · | -2 | · | 4 | 1 | i | · | ·
Continued:
SMILES | eIF4H FP inh | CSC inhib | PABP polyA inh | UUG fidelity | HIV Env fusion | Rce1 inh | MT1-MMP act inh | MT1-MMP act inh RFP | others
CC(C)C[C@H](NC(=O)C1CCN(S(=O)(=O)c2ccccc2)CC1)C(=O)NCc1ccccn1 | · | -1 | · | -12 | -8 | i | -1 | 3
NC(=O)C1CCN(c2oc(-c3cccs3)nc2S(=O)(=O)c2ccc(Cl)cc2)CC1 | · | -17 | · | 4 | · | · | -5 | -5
CC1CCN(CC(O)COc2ccc(C(=O)c3ccccc3)cc2)CC1 (stereo not given) | 5 | 10 | 1 | -6 | 16 | i | -1 | -1
CC1(C)CC(=O)C(N=Nc2ccc(S(=O)(=O)N3CCOCC3)cc2)=C(O)C1 | -3 | -3 | 0 | -11 | 3 | i | 1 | 3
O=C1c2ccccc2C(=O)N1Cc1nc2ccccc2o1 | -4 | -3 | -2 | -9 | · | i | -3 | -4
Cc1ccc(S(=O)(=O)NCC(=O)OCC(=O)N2CC(C)OC(C)C2)cc1 (stereo not given) | · | -17 | · | -14 | · | · | -2 | 4
CCn1c2ccccc2c2cc(NC(=O)c3cccc(OC)c3OC)ccc21 | 0 | -2 | -6 | · | · | i | 3 | -6
CCc1nc2ccc(C(=O)N(C)CC(=O)Nc3ccc(Cl)c(C(F)(F)F)c3)cc2nc1CC | · | 60 | · | -4 | 32 | i | 3 | -3
COc1ccccc1-c1ccc2c(c1)O[C@@H](CN(C)C(=O)Nc1cccc(F)c1)[C@H](C)CN([C@H](C)CO)S2(=O)=O | · | · | · | -7&-11&9 | -93 | · | 2 | 0
CCc1ccc(N(C)S(=O)(=O)c2ccc3[nH]cc(C(=O)NCCN4CCOCC4)c(=O)c3c2)cc1 | -2 | -2 | -3 | -12 | 0 | i | -1 | -11
CCOc1cc(CNCCc2c[nH]c3ccccc23)cc(Cl)c1OCC(N)=O | 2 | 4 | 2 | -10 | 7 | i | -8 | -3
Cc1cc(NN)nc(NS(=O)(=O)c2ccccc2)n1 | -14 | 10 | -2 | -9 | -7 | i | 0 | 0
CCOC(=O)c1cc(C#N)c(NCc2ccccc2)nc1C | 0 | 7 | 0 | -22 | -34 | i | 2 | 1
Fc1ccc(NC(=S)NNc2ncc(C(F)(F)F)cc2Cl)c(F)c1 | 18 | 25 | 9 | · | 70* | i | -11 | -29
COc1ccccc1-n1cnc(N)c1C(=O)c1ccccc1 | -2 | 2 | -1 | -8 | -56 | i | -6 | -7
CCOc1ccc(OCc2ccc(C(=O)Nc3cccnc3)cc2)cc1 | · | 24 | · | 22 | -1 | · | -11 | -23
COC(=O)C(NC(=O)c1ccccc1)=C1C=C(C)OC(C)=C1 | 8 | -18 | -9 | -10 | · | i | -1 | 0
COc1ccc(-c2cc(C(=O)NC(C)C)no2)cc1 | -1 | 4 | -3 | · | -109 | i | · | ·
O=C(c1ccc(=O)[nH]n1)N1CCN(S(=O)(=O)c2cccc(F)c2)CC1 | · | · | · | -5 | 4 | · | 2 | 2
COc1ccc(/C=N/NC(=O)c2ccc(COCC(F)(F)C(F)F)cc2)cc1 | -7 | -6 | -6 | · | -25 | i | 0 | 0
c1cnc2c(OCc3cn4cccnc4n3)cccc2c1 | 0 | -5 | 8 | -22 | · | · | 2 | 3

Compound activity from PubChem BioAssay.
